Vaccinia inh – blocks a specific stage of Vaccinia orthopoxvirus infection, primary screen, cell-based, single point; Vaccinia-infected cells, mCherry/Venus stage reporter fluorescence; active compounds read low; some inactives read as strong as hits; activity change (mCherry), % (concentration not given with the values); actives 0.01% (n = 89,000); AID 1053133, 2014;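 active = mCherry past -33% and 40 or more points under the early reporter, replicates agreeing; inconclusive = past -33% without that gap or agreement; tested in A549 cells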;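 note: scaled between vehicle wells and reference inhibitor wells; 23 nL library stock went into each well; one replicate is shown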
Vaccinia inh Venus – further read-out of Vaccinia inh, marked with its call; activity change (Venus), %; measured here: Venus reporter, other viral stage;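 negative = less Venus signal; first of two replicates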
* = called active by the depositor; u = inconclusive; x = not tested or not shown. The list is partial; the hit share may differ from the screen's.

The opening two entries, to show the layout:
nr | structure | Vaccinia inh | Vaccinia inh Venus
1 | COc1ccc2c3c([nH]c2c1)[C@H](CO)N(Cc1nccs1)CC31CCN(C(=O)C2CCC2)CC1 | 5 | 13
2 | COc1ccc(NC(=O)Nc2cccc3c2O[C@H](CN(C)S(=O)(=O)c2ccc(OC)cc2)[C@@H](C)CN([C@H](C)CO)C3=O)cc1 | 9 | -1

Results, from the first entry:
nr | structure | Vaccinia inh | Vaccinia inh Venus
1 | COc1ccc2c3c([nH]c2c1)[C@H](CO)N(Cc1nccs1)CC31CCN(C(=O)C2CCC2)CC1 | 5 | 13
2 | COc1ccc(NC(=O)Nc2cccc3c2O[C@H](CN(C)S(=O)(=O)c2ccc(OC)cc2)[C@@H](C)CN([C@H](C)CO)C3=O)cc1 | 9 | -1
3 | Cc1cccc(S(=O)(=O)N2C[C@@H](O)COC[C@H]3O[C@H](CC(=O)NCCCN4CCOCC4)CC[C@@H]32)c1 | 3 | 2
4 | COc1cccc(NC(=O)N(C)C[C@H]2Oc3cc(Br)ccc3S(=O)(=O)N([C@H](C)CO)C[C@H]2C)c1 | -1 | -7
5 | CCNC(=O)Nc1ccc2c(c1)C(=O)N(C)[C@H]1CC[C@H](CC(=O)NCCOC)O[C@@H]1CO2 | 4 | 5
6 | C[C@@H]1CN([C@H](C)CO)C(=O)c2cc(NC(=O)CCC(F)(F)F)ccc2O[C@@H]1CN(C)S(=O)(=O)c1cccs1 | 3 | 4
7 | CC(C)C#Cc1ccc2c(c1)O[C@H](CN(C)Cc1ccncc1)[C@@H](C)CN([C@H](C)CO)S2(=O)=O | u | x
8 | O=C(C[C@H]1CC[C@@H](NC(=O)Nc2ccccc2F)[C@@H](CO)O1)NCc1ccccc1 | 5 | 7
9 | CCCNC(=O)C[C@H]1CC[C@H]2[C@@H](COC[C@H](O)CN2C(=O)Nc2ccc3c(c2)OCO3)O1 | 5 | 6
10 | C[C@H](CO)N1C[C@H](C)[C@H](CN(C)Cc2ccc(C(=O)Nc3ccccc3N)cc2)Oc2c(NC(=O)Nc3cccc4ccccc34)cccc2C1=O | 6 | 3
11 | COc1cccc(C#Cc2cnc3c(c2)C(=O)N([C@H](C)CO)C[C@H](C)[C@@H](CN(C)C(=O)C2CC2)O3)c1 | 32 | 5
12 | CN1c2ccc(-c3ccccc3F)cc2[C@H]2[C@H](CCN2C(=O)NC2CCCCC2)[C@@H]1CO | -27 | -23
13 | CCNC(=O)C[C@@H]1CC[C@@H]2[C@H](COC[C@H](O)CN2C(=O)Nc2ccc(Cl)c(Cl)c2)O1 | -7 | -7
14 | Cc1noc(C)c1NC(=O)N[C@@H]1CC[C@H](CC(=O)NCc2ccc(Cl)c(Cl)c2)O[C@@H]1CO | 11 | 13
15 | O=C(Nc1ccc2c(c1)[C@H]1C[C@H](CC(=O)N3CCc4ccccc4C3)O[C@H](CO)[C@H]1O2)c1cccnc1 | -1 | 3
16 | Cc1noc(C)c1NC(=O)N(C)C[C@H]1OCc2ccccc2-c2ccccc2C(=O)N([C@H](C)CO)C[C@H]1C | 2 | 1
17 | C[C@H]1CN([C@@H](C)CO)C(=O)c2cccc(NC(=O)c3nc4ccccc4s3)c2O[C@H]1CN(C)C(=O)NC1CCCCC1 | u | x
18 | C[C@H](CO)N1C[C@H](C)[C@@H](CN(C)C(=O)OCc2ccccc2)OCc2cn(nn2)CCCC1=O | 2 | 7
19 | C[C@H](CO)N1C[C@H](C)[C@@H](CN(C)Cc2cncnc2)Oc2cc(C3=CCCCC3)ccc2S1(=O)=O | -14 | -15
20 | C[C@H](CO)N1C[C@H](C)[C@H](CN(C)CC2CCOCC2)Oc2cc(-c3cccnc3)ccc2S1(=O)=O | -10 | -4
21 | O=C(Cc1ccccc1)N[C@@H]1C=C[C@@H](CC(=O)N2CCOCC2)O[C@H]1CO | -4 | -3
22 | CCCC#Cc1ccc([C@H]2[C@H](CO)N3CCCCN(Cc4cncnc4)C[C@@H]23)cc1 | 3 | 4
23 | COCC(=O)Nc1ccc2c(c1)[C@@H]1C[C@@H](CC(=O)NC3CCCC3)O[C@H](CO)[C@@H]1O2 | -6 | -4
24 | CC(C)CC#Cc1cnc2c(c1)C(=O)N([C@@H](C)CO)C[C@H](C)[C@H](CN(C)C(=O)Cc1ccncc1)O2 | -13 | -14
25 | CO[C@@H]1CN(C)C(=O)c2ccc(NC(=O)Nc3cc(F)ccc3F)cc2OC[C@H](C)N(C(=O)c2cnccn2)C[C@H]1C | 3 | 3
26 | CN(C)C(=O)c1cccc(-c2ccc([C@H]3[C@@H](C#N)N(C(=O)C4CC4)[C@@H]3CO)cc2)c1 | 2 | 6
27 | C[C@H](CO)N1C[C@H](C)[C@@H](CN(C)C(=O)Nc2ccc3c(c2)OCO3)Oc2ccc(NC(=O)Cc3cn(C)c4ccccc34)cc2CC1=O | 7 | 17
28 | O=C(C[C@@H]1CC[C@H]2[C@@H](COC[C@H](O)CN2CC2CCCCC2)O1)NCC1CC1 | 3 | -2
29 | CCC(=O)N1[C@H](CO)[C@H](c2ccccc2)[C@H]1CNC(=O)CN1CCOCC1 | 16 | 12
30 | C[C@@H]1CN([C@@H](C)CO)C(=O)c2cc(C#CCN(C)C)cnc2O[C@H]1CN(C)C(=O)Cc1ccncc1 | -1 | -3
31 | CC(C)NC(=O)N1CCCCN2[C@@H](CO)[C@@H](c3ccc(C#Cc4ccccc4)cc3)[C@@H]2C1 | u | x
32 | COc1ccc(S(=O)(=O)N2CCCCN3[C@@H](CO)[C@@H](c4ccc(C5=CCCCC5)cc4)[C@@H]3C2)cc1 | u | x
33 | C[C@H]1CN([C@@H](C)CO)S(=O)(=O)c2ccc(C3=CCCCC3)cc2O[C@H]1CN(C)C(=O)C1CC1 | -32 | -23
34 | C[C@@H]1CN([C@H](C)CO)C(=O)c2c(c3ccccc3n2C)-c2ccccc2CO[C@H]1CN(C)C(=O)[C@@H](Cc1ccccc1)N(C)C | u | x
35 | COc1ccc(CN(C)C[C@H]2OCCCC[C@@H](C)Oc3ccc(NC(=O)CCC(F)(F)F)cc3C(=O)N([C@H](C)CO)C[C@@H]2C)cc1 | 11 | 9
36 | C[C@@H]1CN([C@H](C)CO)C(=O)c2cccc(NC(=O)Nc3ccc4c(c3)OCO4)c2O[C@H]1CN(C)Cc1ccc(C(=O)Nc2ccccc2N)cc1 | -6 | 0
37 | COC(=O)C[C@H]1CC[C@@H]2[C@@H](COc3ccc(NS(=O)(=O)c4cccc(F)c4)cc3C(=O)N2C)O1 | 2 | 4
38 | Cc1ccc(-c2ccc([C@H]3[C@H](CO)N4CCCCN(S(=O)(=O)c5cccc(C)c5)C[C@@H]34)cc2)cc1 | u | x
39 | COc1cccc(-c2ccc([C@@H]3[C@@H](CO)N4C(=O)CN(C(=O)CN5CCOCC5)C[C@H]34)cc2)c1 | 11 | -2
40 | COc1ccc(C#Cc2ccc([C@@H]3[C@@H](CO)N4C(=O)CN(C(=O)c5cccnc5)C[C@H]34)cc2)cc1 | -15 | -10
41 | C[C@@H]1CN([C@@H](C)CO)C(=O)c2cc(C#C[C@@H](C)O)cnc2O[C@H]1CN(C)Cc1cccc(C(=O)O)c1 | 11 | 5
42 | COc1cccc(C#Cc2ccc3c(c2)O[C@H](CN(C)C(C)=O)[C@@H](C)CN([C@@H](C)CO)S3(=O)=O)c1 | -27 | -18
43 | CCCN1C[C@@H](C)[C@@H](OC)CN(C)C(=O)c2ccc(NS(C)(=O)=O)cc2OC[C@H]1C | 2 | 4
44 | CCc1cnc(N2[C@@H](C#N)[C@H](c3ccc(C#Cc4ccccc4F)cc3)[C@@H]2CO)s1 | u | x
45 | C[C@@H]1CCCCO[C@H](CN(C)C(=O)C2CCCCC2)[C@@H](C)CN([C@H](C)CO)C(=O)c2cc(NC(=O)Nc3ccc(C(F)(F)F)cc3)ccc2O1 | -25 | -9
46 | O=C(C[C@@H]1CC[C@H]2[C@@H](COC[C@H](O)CN2Cc2ccc3c(c2)OCO3)O1)Nc1ccccc1 | 1 | 0
47 | O=C(c1ccccc1F)N1C[C@@H]2[C@H](c3ccccc31)[C@@H](CO)N2C(=O)c1ccncc1 | 12 | 9
48 | COC(=O)C[C@H]1CC[C@@H]2[C@H](COC[C@@H](O)CN2C(=O)Nc2ccccc2OC)O1 | 2 | -10
49 | COc1cccc(S(=O)(=O)N[C@@H]2CC[C@H](CCNC(=O)Cc3ccncc3)O[C@H]2CO)c1 | 6 | 14
50 | C/C=C/c1ccc([C@@H]2[C@H](CO)N(C(=O)CC)C23CN(S(C)(=O)=O)C3)cc1 | 2 | 1

One compound at a time, as listed above. Values in the order: Vaccinia inh	Vaccinia inh Venus
COc1cccc(S(=O)(=O)N[C@@H]2CC[C@H](CCNC(=O)Cc3ccncc3)O[C@H]2CO)c1 is listed as 6	14
CCC(=O)N1[C@H](CO)[C@H](c2ccccc2)[C@H]1CNC(=O)CN1CCOCC1 is listed as 16	12

2 entries drawn at random from the list so far:
nr | structure | Vaccinia inh | Vaccinia inh Venus
47 | O=C(c1ccccc1F)N1C[C@@H]2[C@H](c3ccccc31)[C@@H](CO)N2C(=O)c1ccncc1 | 12 | 9
44 | CCc1cnc(N2[C@@H](C#N)[C@H](c3ccc(C#Cc4ccccc4F)cc3)[C@@H]2CO)s1 | u | x

Next section:
nr | structure | Vaccinia inh | Vaccinia inh Venus
51 | CCCN(C)C[C@H]1OCCCC[C@H](C)Oc2ccc(NC(=O)Cc3ccccc3)cc2C(=O)N([C@H](C)CO)C[C@H]1C | -13 | -8
52 | O=C(NC1CCCC1)[C@@H]1[C@@H](CO)[C@@H]2Cn3c(ccc(-c4ccccc4)c3=O)[C@H]1N2CC1CC1 | 11 | 4
53 | COc1ccc(S(=O)(=O)N(C)C[C@@H]2Oc3c(NC(=O)C4CC4)cccc3C(=O)N([C@H](C)CO)C[C@@H]2C)cc1 | -7 | 7
54 | CC(C)NC(=O)N(C)C[C@@H]1OCCCC[C@@H](C)Oc2ccc(NS(=O)(=O)c3cn(C)cn3)cc2C(=O)N([C@H](C)CO)C[C@@H]1C | 4 | -2
55 | C[C@@H]1CCCCO[C@H](CN(C)S(=O)(=O)c2ccccc2)[C@@H](C)CN([C@H](C)CO)C(=O)c2cc(NS(C)(=O)=O)ccc2O1 | 20 | 4
56 | C[C@@H]1CCCCO[C@H](CN(C)Cc2ccc(C(=O)O)cc2)[C@@H](C)CN([C@H](C)CO)C(=O)c2cc(NC(=O)Cc3ccccc3)ccc2O1 | 17 | 8
57 | C[C@@H]1CN([C@H](C)CO)C(=O)c2cc(C#CC3(O)CCCC3)cnc2O[C@@H]1CN(C)C(=O)Nc1ccc2c(c1)OCO2 | 14 | 5
58 | C[C@H](CO)N1C[C@H](C)[C@@H](CN(C)C(=O)Nc2cccc3ccccc23)OCCCC[C@H](C)Oc2ccc(NC(=O)Nc3cccc4ccccc34)cc2C1=O | 44 | 20
59 | O=C(C[C@H]1C[C@H]2c3cc(NC(=O)Cc4ccncc4)ccc3O[C@H]2[C@H](CO)O1)NCCc1ccccc1 | -5 | 3
60 | C[C@@H](O)C#Cc1cnc2c(c1)C(=O)N([C@@H](C)CO)C[C@H](C)[C@H](CN(C)Cc1cncnc1)O2 | -1 | -4
61 | Cc1ccccc1S(=O)(=O)N1[C@@H](C#N)[C@H](c2ccccc2)[C@@H]1CO | 2 | 4
62 | CCCN1C[C@H](C)[C@@H](OC)CN(C)C(=O)c2cc(NC(=O)NC3CCCCC3)ccc2OC[C@@H]1C | -33 | -29
63 | O=C(NC[C@@H]1[C@H](c2ccccc2)[C@@H](CO)N1C(=O)C1CC1)NC1CCCC1 | 7 | 4
64 | OC[C@@H]1CC[C@@H]2O[C@H](CCc3ccc(-c4ccccc4)cc3)[C@@H](n3cc(C4CC4)nn3)C[C@@H]2O1 | -5 | -5
65 | C[C@H]1CN([C@@H](C)CO)C(=O)c2cc(NC(=O)Nc3ccc(C(F)(F)F)cc3)ccc2O[C@@H]1CN(C)C(=O)Nc1ccc(C(F)(F)F)cc1 | -7 | 1
66 | O=C(NCc1ccccc1)[C@]1(Cc2ccccc2)N=C(c2ccc(OCCCO)cc2)O[C@@H]1c1ccccc1 | u | x
67 | C[C@@H]1CN([C@H](C)CO)C(=O)c2cc(NS(=O)(=O)c3cn(C)cn3)ccc2O[C@H]1CN(C)C | 25 | 14
68 | C[C@H](CO)N1C[C@H](C)[C@H](CN(C)CC2CC2)Oc2c(cccc2N(C)C)C1=O | -4 | 2
69 | CO[C@H]1CN(C)C(=O)c2cc(NS(=O)(=O)c3ccc(Oc4ccccc4)cc3)ccc2OC[C@H](C)NC[C@@H]1C | u | x
70 | CN1CCCCN2[C@@H](CO)[C@@H](c3ccc(C4=CCCC4)cc3)[C@@H]2C1 | -4 | -16
71 | CCCNC(=O)C[C@@H]1CC[C@H]2[C@H](COc3ccc(NC(=O)NCC)cc3C(=O)N2C)O1 | -3 | 0
72 | CCCC(=O)Nc1ccc2c(c1)C(=O)N(C)[C@@H]1CC[C@@H](CC(=O)N3CCCCC3)O[C@H]1CO2 | 17 | 3
73 | O=S(=O)(NC[C@@H]1N[C@H](CO)[C@@H]1c1ccc(C2=CCCC2)cc1)c1ccccc1 | 1 | 15
74 | C[C@@H]1CN([C@@H](C)CO)C(=O)Cc2cc(NS(=O)(=O)c3ccc(F)cc3)ccc2O[C@H]1CN(C)S(C)(=O)=O | -4 | 5
75 | CC=Cc1ccc2n(c1=O)C[C@H]1[C@H](CO)[C@@H](C(=O)NCCC)N(Cc3cccnc3)[C@@H]21 (mixture of isomers) | 25 | 14
76 | Cc1ccc(S(=O)(=O)Nc2cccc3c2O[C@@H](CN(C)C(=O)Nc2c(C)noc2C)[C@@H](C)CN([C@H](C)CO)C3=O)cc1 | 6 | 3
77 | C[C@@H]1CN([C@H](C)CO)C(=O)c2cc(N(C)C)ccc2O[C@H]1CN(C)S(=O)(=O)c1ccccc1 | 7 | 1

A different layout for part of the listing above.
(44) CCc1cnc(N2[C@@H](C#N)[C@H](c3ccc(C#Cc4ccccc4F)cc3)[C@@H]2CO)s1
(64) OC[C@@H]1CC[C@@H]2O[C@H](CCc3ccc(-c4ccccc4)cc3)[C@@H](n3cc(C4CC4)nn3)C[C@@H]2O1
compound no.,44,64
Vaccinia inh,u,-5
Vaccinia inh Venus,x,-5

Screening data from PubChem BioAssay.
